High-throughput results from PubChem.
ALR H2O2 inh – inhibitors of human ALR sulfhydryl oxidase, primary screen, biochemical, H2O2 detection, HRP-luminol luminescence, single point; hit rate 3.8% among 290,000; inhibition, % (no concentration beside the values); purified ALR, DTT oxidation; AID 485317, 2010; FAD-linked sulfhydryl oxidase ALR (Homo sapiens), P55789;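 active means mean and each replicate at 75% or more; inconclusive means only one of the two met; inactive means neither met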;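 further: stock transfer was 7.5 nL into about 7.5 µL; 0% = neutral wells and 100% = wells with inactivated enzyme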
Target sequence (P55789 whole entry, looked up): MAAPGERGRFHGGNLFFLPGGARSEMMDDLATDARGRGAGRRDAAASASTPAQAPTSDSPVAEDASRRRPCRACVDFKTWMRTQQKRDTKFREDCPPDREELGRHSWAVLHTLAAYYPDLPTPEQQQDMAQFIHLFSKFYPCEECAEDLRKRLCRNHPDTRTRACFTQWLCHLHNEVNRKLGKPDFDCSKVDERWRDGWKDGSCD
FGF22 binding – binders of human FGF22 protein, primary screen, FGF22 synaptogenesis inhibitor project, biophysical, thermal shift, single point; recombinant FGF22 thermal shift, SYPRO orange fluorescence; percent of sucrose octasulfate shift, DMSO zero; calls only at 9.99 µM; hit rate 1.5% among 340,000; AID 651658, 2012;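 active means melting point raised past a set limit in the mean and every replicate; inconclusive means no clear call; three in four hits are not shown here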
Target sequence (Q9HCT0 whole entry, looked up): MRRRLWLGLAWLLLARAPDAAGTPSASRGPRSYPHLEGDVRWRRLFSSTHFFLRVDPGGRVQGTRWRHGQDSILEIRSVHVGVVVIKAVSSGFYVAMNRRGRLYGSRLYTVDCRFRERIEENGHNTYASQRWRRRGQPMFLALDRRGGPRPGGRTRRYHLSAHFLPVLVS
Ecoli growth – E. coli growth inhibition, primary screen, OD600; Escherichia coli growth, 23 h; stronger effect = lower value; OD600 absorbance (no concentration beside the values); hit rate 0.21% among 330,000;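 active means OD600 absorbance below the run mean of sample wells minus 3.6 SD, in any replicate, cut at about 0.56 in these data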;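 further: stock transfer was 300 nL into about 60 µL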
rRNA inh HTS – reduced GFP signal of wild-type E. coli, primary screen, bacterial rRNA inhibitor project, GFP/RFP fluorescence, OD600, single point; E. coli WT GFP vs humanized-ribosome RFP mutants, 24 h; stronger effect = lower value; DMSO median 0, no signal -100; GFP signal change (wild-type ribosome), % (no concentration beside the values); hit rate 1.6% among 350,000; AID 720706, 2013;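 active means significant combined selectivity score with lowered wild-type GFP, culture density cut under 30%, mutant RFP and density less affected; inactive means any of these conditions unmet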; further: one replicate is shown; some compounds called inactive have numbers as strong as hits
HNF4A DNA FP – change in binding of human HNF4A to DNA, primary screen, biochemical, fluorescence polarization, FITC-DNA | hit rate 0.3% among 360,000 | activity change, % at 10 µM | 1 h; in the data active means activity change above about 30%, passing the limit was not always enough;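 further: controls were the assay level and a saturating level of protein; the project sought stronger binding though the title names inhibitors; some compounds called inactive have numbers as strong as hits; positive values seem to mean higher polarization but the record does not say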
Vif TR-FRET – inhibitors of Vif binding to APOBEC3G peptide, primary screen, biochemical, TR-FRET, GST-Vif 1-94, biotin-A3G peptide, dose response retest (AID 1117319); TR-FRET GST-Vif / biotin-A3G peptide binding; higher % means a stronger effect; test concentration not given here; strong numbers were not always called active; Virion infectivity factor (Human immunodeficiency virus type 1 group M subtype B (isolate …; one-dose inhibition, %; IC50 in µM for titrated hits; hit rate 0.57% among 260,000;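 active means above the screen mean plus three standard deviations and confirmed in dose response; inconclusive means results disagree or hit not tested in dose response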;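 further: Vif residues 1-94 fused to GST binding biotinylated APOBEC3G peptide 110-148; 0% = full assay without inhibitor and 100% = GST in place of GST-Vif; retest series ran down from 100 µM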
AF4-AF9 inh – inhibitors of AF4 peptide binding to AF9, primary screen, biochemical, AlphaScreen, biotin-AF4 peptide, FLAG-AF9, single point | Protein AF-9 (Homo sapiens), P42568 | inhibition, % at 10 µM | hit rate 0.47% among 350,000 | AID 651704, 2012;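 active means every replicate reaching a set inhibition limit, whatever the replicate mean, cut at about 25% in these data; inconclusive means mean inhibition reaches that limit but some replicates miss it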;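 further: 0% = plate neutral control median and 100% = total signal loss; the record names both 10 and 1 µM as test concentration; the first replicate is given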
Target sequence (P42568 whole entry, looked up): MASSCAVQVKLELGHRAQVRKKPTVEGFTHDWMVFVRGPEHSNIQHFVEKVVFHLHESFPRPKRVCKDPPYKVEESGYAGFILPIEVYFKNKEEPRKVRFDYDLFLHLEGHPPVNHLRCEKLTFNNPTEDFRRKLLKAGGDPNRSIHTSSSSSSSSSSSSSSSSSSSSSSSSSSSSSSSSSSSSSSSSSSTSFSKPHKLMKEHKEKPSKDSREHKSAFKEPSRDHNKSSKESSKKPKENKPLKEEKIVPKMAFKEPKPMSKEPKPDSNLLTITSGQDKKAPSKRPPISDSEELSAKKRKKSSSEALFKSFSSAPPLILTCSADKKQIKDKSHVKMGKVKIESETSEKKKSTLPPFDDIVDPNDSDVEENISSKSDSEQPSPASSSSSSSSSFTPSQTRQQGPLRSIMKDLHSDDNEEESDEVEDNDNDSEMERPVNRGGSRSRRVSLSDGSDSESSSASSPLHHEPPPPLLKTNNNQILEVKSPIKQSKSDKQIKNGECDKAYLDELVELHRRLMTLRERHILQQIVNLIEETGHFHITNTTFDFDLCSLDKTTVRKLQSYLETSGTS
rRNA inh HTS OD600 – also measured in rRNA inh HTS; calls as there; OD600 change, %; measured here: OD600 growth;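 optical density of the mix in the first replicate; 0 = DMSO median and -100 = no signal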
rRNA inh HTS RFP – also measured in rRNA inh HTS; calls as there; RFP signal change, %; measured here: RFP humanized mutant strains;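 first replicate; 0 = DMSO median and -100 = no signal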
Starred values were filed as active, the others as inactive; i = inactive; ? = inconclusive; · = not tested or not shown; & = joins results of further samples.

Values in the order – Ecoli growth	rRNA inh HTS RFP	rRNA inh HTS OD600	rRNA inh HTS	Vif TR-FRET	HNF4A DNA FP	ALR H2O2 inh	AF4-AF9 inh	FGF22 binding
Nc1c(C(=O)N/N=C/c2ccccc2)cnn1-c1ccccc1
→ ·	·	·	·	-9%	5.0	-1	-0.7	i
O=C(CSc1nnc(Cc2ccccc2)o1)NCCN1C(=O)CSC1=O
→ 0.71	·	·	·	-3%&-3%	-2.9	-12	·	·
COc1ccccc1NC(=O)CSc1nnnn1C
→ 0.71	·	·	·	6%	0.4	4	·	·
CCCCCCN=C(C)c1ccccc1O
→ ·	-2.3	6	14	12%	7.4	-2	-6.4	i
C[C@H](CO)N1C[C@H](C)[C@H](CN(C)C(=O)Cc2ccccn2)Oc2ncc(/C=C/c3ccccc3)cc2C1=O
→ ·	2.7	10	2	·	·	·	1.2	i
CC(C)NC(=O)N(C)C[C@H]1Oc2ccc(NC(=O)CCCCCC(=O)Nc3ccccc3N)cc2C(=O)N([C@@H](C)CO)C[C@@H]1C
→ ·	-0.4	11	4	·	·	·	-1.7	i
Cc1cc(C)cc(Oc2ccccc2/C=N\O)c1
→ ·	·	·	·	2%	-0.4	27	·	·
C[C@@H]1CN([C@@H](C)CO)S(=O)(=O)c2ccc(C#Cc3ccc(F)cc3)cc2O[C@H]1CN(C)C
→ ·	14	-49	-6	·	·	·	7.5	i
COC(c1ccccc1)c1nnc(CCC(=O)NCCC(C)C)o1 (configuration not stated)
→ 0.71	1.9	5	5	27%	0.3	-7	-1.7	i
CCC(=O)Nc1nc(C)nc(C)c1C(C)=O
→ 0.76	·	·	·	11%	-0.1	0	·	·
CCC1Oc2ccc(C)cc2N(CC(=O)NCCC2=CCCCC2)C1=O (configuration not stated)
→ 0.72	-2.5	-1	-7	24%	1.3	-5	2.3	i
C=C(C)c1ccc(C(C)(C)NC(=O)N2CCN(C)CC2)cc1
→ 0.77	·	·	·	0%	-1.5	-12	·	·
O=S(=O)(c1cccc(S(=O)(=O)N2CCC(n3nnc4ccccc43)CC2)c1)N1CCCCC1
→ 0.74	·	·	·	-3%	-2.0	-1	·	·
N/C(=N\OC(=O)Nc1cccc(C(F)(F)F)c1)c1ccno1
→ 0.62	-16*	-30*	-51*	-1%	1.4	-6	-0.5	i
O=C(Nc1ccc(Oc2cccnc2)cc1)C1CCN(Cc2cccc(Cl)c2)CC1
→ 0.6	0.6	-8	-10	-3%	1.7	-6	12	i
O=C(O)c1cccnc1Br
→ 0.72	-1.5	8	8	0%	-1.3	-4	-0.6	i
CN(C)N1C(N)=C(C#N)C(c2ccc(F)cc2)C2=C1CC(C)(C)CC2=O (configuration not stated)
→ 0.69	5.5	9	3	0%	-0.4	31	-2.4	i
COc1cccc(NC(=S)N/N=C2\CC3CCC2(C)C3(C)C)c1 (configuration not stated)
→ ·	19	-25	-13	0%	2.2	-10	4.5	i
Cc1ccc(C(=O)NCCN2CCC(n3c(=O)[nH]c4ccccc43)CC2)cc1F
→ ·	1.8	3	2	·	-2.4	·	0.6	i
COc1ccc(NC2=CC(=O)CC(c3ccccc3)C2)cc1 (configuration not stated)
→ 0.66	1.5	9	19	-4%	-6.5	0	-1.0	i
COC(=O)C(C(=O)OC)c1ccc(N)cc1
→ ·	4.2	-3	7	·	-0.8	·	2.7	i
Cn1c(Cl)c(C(=O)Nc2ccc(Cl)cc2)c2ccccc21
→ 0.69	·	·	·	29%	2.1	2	·	·
CCCCn1c(-c2csc(C(C)C)c2)n[nH]c1=S
→ 0.71	-29	-81	-52	?	-2.1	?	-3.3	i
O=C(CCNS(=O)(=O)c1ccccc1)N1CCN(c2ccccc2F)CC1
→ 0.71	-1.3	-7	-2	·	3.2	1	1.0	i
CCOC(=O)Cc1csc(NS(=O)(=O)c2ccccc2)n1
→ 0.79	·	·	·	7%	1.1	·	·	·
CC1(C)CC(=O)c2cn3c(nc2C1)nc1ccccc13
→ 0.66	·	·	·	-4%	3.3	-5	-2.9	·
CCOc1ccc(-c2nc3n(c(=O)c2C#N)CCCS3)cc1
→ 0.75	·	·	·	7%	6.3	·	·	·
COc1ccc2cc(CN(Cc3cccs3)Cc3nnnn3Cc3ccccc3)c(=O)[nH]c2c1
→ 0.71	·	·	·	11%	1.4	-3	·	·
CN1CCN(C(=O)C[C@@H]2CC[C@@H]3[C@H](COC[C@H](O)CN3S(=O)(=O)c3cccc(F)c3)O2)CC1
→ ·	-0.4	9	8	·	·	·	-19	i
Cc1ccc(-n2c(C)c(C)c3c(NCCN(C)C)ncnc32)cc1
→ 0.68	-3.1	6	8	-2%	0.5	-3	18	i
O=C1CC(c2ccco2)CC(O)=C1C=NCC1NCCc2ccccc21 (configuration not stated)
→ 0.72	·	·	·	?	-0.3	-8	·	·
O=C(c1cccc(S(=O)(=O)N2CCN(c3ccccc3)CC2)c1)N1CCCCCCC1
→ 0.7	-0.5	2	1	-5%	-0.5	-2	-5.0	i
CCOC(=O)Nc1cccc(NC(=O)c2cc(OC)cc(OC)c2)c1
→ 0.65	·	·	·	14%	0.3	-9	·	·
O=C(Nc1cccc2cccnc12)c1ccc2sc([C@H]3C[C@H](O)[C@@H](CO)O3)nc2c1
→ ·	-2.3	-4	-3	·	-5.3	·	-7.5	i
CNC(=O)c1c(C)noc1C
→ 0.65	0.4	20	13	-2%	0.4	-5	0.1	i
CC(C)c1ccc(Nc2cnn(C34CC5CC(CC(CC(=O)O)(C5)C3)C4)c(=O)c2Cl)cc1
→ 0.7	0.0	14	7	1%	-3.9	1	6.5	i
C[C@@H]1CCCCO[C@H](CN(C)C)[C@H](C)CN([C@H](C)CO)C(=O)c2cc(NS(C)(=O)=O)ccc2O1
→ ·	-3.7	0	1	·	·	·	-0.4	i
COc1ccc(CN2C[C@@H](C)[C@@H](OC)CN(C)C(=O)c3cc(NC(=O)C4CC4)ccc3OC[C@H]2C)cc1
→ ·	0.4	3	2	·	·	·	-18	i
CC(=O)Nc1ccc(NC(=O)c2sc3nc4c(c(-c5ccc(C)cc5)c3c2N)CCC4)cc1
→ 0.69	·	·	·	>100µM*	3.0	-16	·	·
O=C(NCCN1CCN(C(=O)c2cccc(Br)c2)CC1)C(=O)NCc1ccccc1
→ 0.69	1.5	-1	-1	-4%	3.4	-11	-13	i
Cc1ccc(Nc2nc(N)c([N+](=O)[O-])c(NCCO)n2)cc1
→ 0.62	2.6	16	24	-15%	-2.9	-2	-2.0	i
CCC(C(=O)OC)n1cnc2c(nnn2-c2cccc(Cl)c2)c1=O (configuration not stated)
→ 0.73	-6.8	-4	-9	0%	-0.5	·	-33	i
O=C(Nc1ccc2c(c1)[C@@H]1C[C@@H](CC(=O)N3CCc4ccccc4C3)O[C@@H](CO)[C@@H]1O2)C1CCC1
→ ·	1.1	-11	-9	·	·	·	2.1	i
CCCCCN(C(=O)CCC(=O)OCC(=O)N(CC#N)c1ccccc1)c1c(N)n(CCCC)c(=O)[nH]c1=O
→ 0.7	-0.5	7	7	16%	-3.8	0	-10	i
COC(=O)c1ccc(Nc2cc(C)nc3ncnn23)cc1
→ 0.66	·	·	·	-3%	-1.9	·	·	·
Cc1[nH]c2c(C)cccc2c(=O)c1CN1CCCCCC1
→ 0.66	-0.3	5	7	·	4.3	0	6.9	i
CCOc1ccc(N2C(=O)C3C4C=CC(CC4)C3C2=O)c([N+](=O)[O-])c1 (configuration not stated)
→ 0.67	·	·	·	3%	2.6	0	·	·
COc1ccc(OC)c(C(=O)COC(=O)c2ccc(C)o2)c1
→ 0.77	·	·	·	0%	0.6	58	·	·
Cc1ccccc1NNC(=O)C(=O)NNc1ccccc1C
→ 0.65	1.3	13	15	?	0.2	98*	0.9	i
COc1ccc(C(=O)Nc2ccc(-c3nnn(CC(=O)N4CCN(C(=O)c5ccco5)CC4)n3)cc2)cc1
→ 0.66	·	·	·	-2%	7.4	-9	·	·

Brought forward from above: 2 entries; new compounds follow.
Values in the order – Ecoli growth	rRNA inh HTS RFP	rRNA inh HTS OD600	rRNA inh HTS	Vif TR-FRET	HNF4A DNA FP	ALR H2O2 inh	AF4-AF9 inh	FGF22 binding
Cc1ccccc1NNC(=O)C(=O)NNc1ccccc1C
→ 0.65	1.3	13	15	?	0.2	98*	0.9	i
COc1ccc(C(=O)Nc2ccc(-c3nnn(CC(=O)N4CCN(C(=O)c5ccco5)CC4)n3)cc2)cc1
→ 0.66	·	·	·	-2%	7.4	-9	·	·
COc1ccc(S(=O)(=O)c2c(O)c3ccc(C(=O)Nc4ccccc4)cc3[nH]c2=O)cc1
→ 0.69	-2.0	6	2	4%	3.5	55	0.6	i
Cc1ccc(NC(=O)CN(C)C(=O)COC(=O)C2=COCCO2)cc1
→ 0.71	-1.8	12	6	-5%	3.5	-2	-1.1	i
O=C(O)Cc1sc(NC2CCCCC2)nc1-c1ccc(Cl)cc1
→ 0.67	11	-13	-10	4%	9.6	-1	2.9	i
COCC(=O)N(C)C[C@@H]1Oc2cc(-c3ccc(OC)cc3)ccc2S(=O)(=O)N([C@@H](C)CO)C[C@@H]1C
→ ·	1.6	1	2	·	·	·	0.0	i
CCCN(C(=O)CSc1nnnn1-c1ccccc1OC)C1CCS(=O)(=O)C1 (configuration not stated)
→ 0.68	0.8	12	6	·	6.4	1	-3.2	i
NNC(=O)C1CCN(S(=O)(=O)c2ccc(Cl)cc2)CC1
→ 0.67	0.9	-6	3	·	1.3	-3	-2.0	i
COc1ccc(Cl)cc1NC(=O)CCN1CCN(c2ccccc2C)CC1
→ 0.71	-6.2	-5	6	17%	3.7	0	4.3	i
CCc1nn(-c2cc(Oc3cccc4ccccc34)nc(-c3ccccc3)n2)c(N)c1C#N
→ 0.77	-1.4	17	7	-2%	-2.0	7	·	·
CN(C)/C=N/C(=S)Nc1ccc(Cl)cc1Cl
→ ·	-2.2	-6	-1	5%	-1.3	9	1.4	i
CCCOc1ccc(C2C(C(=O)c3cc4ccccc4o3)=C(O)C(=O)N2c2cc(C)on2)cc1OC (configuration not stated)
→ 0.71	1.7	13	2	-9%	0.1	14	-1.7	i
CCOC(=O)C1=C(COC(=O)c2ccc(OC)c(S(=O)(=O)N3CCOCC3)c2)NC(=O)NC1C (configuration not stated)
→ 0.67	4.0	14	14	·	0.8	·	0.2	i
CC1Cc2cc(/C(O)=C3/C(=O)C(=O)N(CCCn4ccnc4)C3c3ccc(Br)cc3)ccc2O1 (configuration not stated)
→ 0.71	5.7	-11	-6	·	0.8	44	1.0	i
S=c1[nH]nc(-c2cc(-c3ccccc3)n[nH]2)n1/N=C/c1cccc(Cl)c1
→ ·	3.0*	4.2*	-17*	8%	-22	1	-3.1	i
COC(=O)c1cccc(NC(=O)CSc2nnc(C)n2C)c1
→ 0.63	3.4	28	24	1%	-0.6	-12	-2.9	i
O=C(Cn1nc(-c2ccc(Cl)cc2)c2ccccc2c1=O)Nc1cccnc1
→ 0.73	·	·	·	15%	1.8	-4	·	·
CN(C)c1nc(NC(C)(C)C)nc(SCC(=O)Nc2ccccc2)n1
→ 0.71	0.6	2	2	·	-1.5	-6	0.9	i
O=C(C[C@H]1CC[C@@H](NC(=O)c2ccncc2)[C@@H](CO)O1)NCC1CCCCC1
→ ·	-1.0	-2	3	·	·	·	0.5	i

Some of the compounds tested, so the mix of outcomes need not match the whole.
